# Bioassay records deposited in PubChem BioAssay by ICCB-Longwood Screening Facility, Harvard Medical School.
# HCMV NEC inh – disrupts HCMV UL50-UL53 complex binding. HTRF UL50-UL53 interaction, normalized percent inhibition. inhibition, % (concentration not given with the values). 0.15% of 190,000 active;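 active = both replicates at 50% or more, plus weaker picks with an unusually low signal ratio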;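 also: stock transfer was 100 nL into about 20 µL; 0% = negative control wells and 100% = wells with untagged competitor protein; inactives centre near -12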
# GIV Gai3 FP – GIV-Galpha-i interaction inhibition. AID 1224905. Galpha-i3/FITC-GIV peptide fluorescence polarization, 90 min; active compounds read low; scaled: aluminum fluoride 0%, vehicle 100%. percent of control (FP), % (no concentration beside the values). 0.42% of 210,000 active;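 active = replicate mean at 85% of control or lower, very high polarization wells dropped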;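 also: wells of about 15 µL received 100 nL stock; the first replicate is given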
# Target sequence (P08753 whole entry, looked up): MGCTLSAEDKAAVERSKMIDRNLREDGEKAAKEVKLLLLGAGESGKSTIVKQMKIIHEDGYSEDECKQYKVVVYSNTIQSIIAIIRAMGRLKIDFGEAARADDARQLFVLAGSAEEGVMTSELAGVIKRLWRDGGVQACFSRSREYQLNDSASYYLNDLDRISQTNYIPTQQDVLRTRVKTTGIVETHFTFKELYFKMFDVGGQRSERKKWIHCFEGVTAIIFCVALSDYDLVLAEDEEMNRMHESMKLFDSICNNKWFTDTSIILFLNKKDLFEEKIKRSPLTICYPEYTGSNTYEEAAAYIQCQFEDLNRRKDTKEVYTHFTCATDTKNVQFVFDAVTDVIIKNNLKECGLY
# Sa growth 42C – S. aureus growth inhibition; 0.53% of 170,000 active; S. aureus RN4220 growth, OD600, 20 h, 42 °C; active compounds read low; relative growth, % (test concentration not listed);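 active = growth at 42 °C up to 50% and 20 or more points under that at 30 °C, or under 10% at both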;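 also: 300 nL library stock went into each well; scaled to the means of positive and negative controls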
# Sa growth 42C second temp – further read-out of Sa growth 42C, marked with its call; relative growth, %; measured here: growth at 30 °C;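 optical density after 20 h as mean of two plates; 100% = untreated growth and lower means inhibition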
# Starred values were filed as active, the others as inactive; . = not tested or not shown; & = joins results of further samples. The order is random; 0.85% or so of the library scored in one or more.
Structure	HCMV NEC inh	GIV Gai3 FP	Sa growth 42C	Sa growth 42C second temp
CC(C(=O)NCc1ccccc1Cl)n1ccc2cc(S(=O)(=O)N3CCCCC3)ccc21 (stereo unspecified)	.	107.2	102.7	90.0
CCc1nc2nc(C)cc(NCCc3ccccc3)n2n1	.	114.2	76.3	76.3
COC(=O)N1CCC(C(=O)O)CC1	-13.1	101.8	.	.
CC(C)c1ccc(-n2cccc2/C=C2/C(=N)N3C=CSC3=NC2=O)cc1	.	132.9	74.0	72.9
O=C(c1cc(-c2ccccc2)on1)N(Cc1cccc(Br)c1)C1CCS(=O)(=O)C1 (stereo unspecified)	-16.3	101.3	.	.
Cc1ccn(CCC(=O)Nc2ccc(F)cc2F)n1	-25.1	92.7	89.3	86.5
C=CCn1c(N)nc2c1c(=O)n(C)c(=O)n2C	-20.6	100.5	111.8	83.6
Cc1nnc(NC2CCCC2)s1	3.8	.	110.2	96.8
C/C(=N\O)C(C)(C)Nc1cc(C(F)(F)F)cc(C(F)(F)F)c1	-24.0	102.6	112.7	69.9
CCn1cc(C(=O)NC2CCCc3ccccc32)c(=O)c2ccc(C)nc21 (stereo unspecified)	1.2	.	99.5	94.5
CN(Cc1cc2ccccc2[nH]c1=O)S(C)(=O)=O	.	105.8	98.5	88.2
CCC(C)c1ccccc1NC(=O)c1ccc(Cl)nc1 (stereo unspecified)	-19.8	.	89.9	86.9
CN(Cn1nc2sc3ccccc3n2c1=S)C1CCCCC1	-10.4	.	54.4	82.4
O=C(O)C1C2C=CC(O2)C1C(=O)NC1CCCc2ccccc21 (stereo unspecified)	-23.7	105.6	92.0	79.8
CCc1ccc(C2=CC(=O)C=CC2=O)cc1	.	102.6	65.4	50.9
O=C(Cn1cc(S(=O)(=O)Cc2ccc(F)cc2)c2ccccc21)NCCc1ccccc1	.	101.5	113.5	84.5
CC(C)CC(=O)Nc1ncnc2c1C(=O)CC(C)(C)C2	-15.3	94.9	98.1	85.5
CC(=O)Nc1ccc(-c2nc(CN3C(=O)COc4ccccc43)no2)cc1	-21.7	116.9	.	.
Cc1ccc(S(=O)(=O)Cc2ccc(N)cc2)cc1	-14.4	97.5	102.5	103.8
COC(=O)CNC(=O)C1CCN(S(=O)(=O)c2cccc3nsnc23)CC1	-77.8	102.6	97.8	89.4
Cc1cc(=O)n2[nH]c(N)nc2n1	-0.6	101.0	.	.
COCCCNC(=O)CSc1nc2nc(C)c(Cc3ccccc3Cl)c(C)n2n1	3.6	95.7	111.5	96.5
CC(C)(C)C(=O)CC1(O)C(=O)Nc2ccc(Br)cc21 (stereo unspecified)	-2.4	100.5	102.7	105.1
CCCCn1c(=O)n(C)c(=O)c2c(=S)nc(-c3cccc(S(=O)(=O)N(C)C)c3)[nH]c21	-7.6	.	104.5	88.6
O=C(N=c1nc2ccccn2s1)c1ccccc1Cl	-36.5	.	113.8	82.2
CCN(CC)CN1C(=O)NC2(CCC(C)CC2)C1=O (stereo unspecified)	-27.4	.	93.9	95.8
COc1ccc(-c2nc(N(C)c3ccccc3)[nH]c(=O)c2C#N)cc1	-2.7	105.3	121.1	91.7
CCOC(=O)c1ccc(NC(=O)CC(C)n2nc(C)cc2C)cc1 (stereo unspecified)	.	102.4	107.8	93.5
O/N=C/C(=N/O)c1ccccc1	-56.8	.	118.7	82.3
O=C(NCCN1CCN(c2ccccc2)CC1)c1ccc2nc3ccc(Cl)cc3c(=O)n2c1	.	101.4	105.5	89.6
CC1CCCCN1S(=O)(=O)c1ccc2c(c1)CCC(=O)N2CC(=O)Nc1ccc2c(c1)OCCO2 (stereo unspecified)	-9.3	145.4	.	.
Cc1nc(Nc2ccc(NC(=O)C(C)(C)C)cc2)cc(N2CCCC2)n1	-7.7	99.7	.	.
N#CCCN(Cc1cccs1)C(=O)c1ccc(Cl)cc1	-24.0	99.3	92.4	85.7
O=C(COC(=O)Cn1c(=O)oc2ccccc21)Nc1cccc2nsnc12	-33.1	.	85.9	79.3
Cc1cc(Cl)ccc1NC(=O)C(Cc1ccccc1)NS(=O)(=O)c1cccc2cccnc12 (stereo unspecified)	-29.7	104.8	.	.
N#Cc1ccc(C(=O)Nc2cc(C(F)(F)F)ccc2-n2cncn2)cc1	-15.2	.	101.0	89.4
CCCOc1ccc(Cn2c(=O)c3sccc3n3c(=S)[nH]nc23)cc1	-12.9	102.7	.	.
O=C(C1CCCN(Cc2ccccc2F)C1)N1CCCCC1 (stereo unspecified)	.	101.5	95.5	88.9
Cc1cc(/C=C2\SC(=S)N(Cc3ccco3)C2=O)c(C)n1-c1ccccc1	-14.2	239.6	125.0	71.6
COc1ccc(Nc2ncnc3c2nc2n3CCCC2)c(OC)c1	-0.1	98.7	.	.
Cc1cc(C)n(CCc2nc3c4ccccc4n(CC(=O)Nc4ccc(F)cc4)c(=O)n3n2)n1	-14.1	104.0	.	.
CCOC(=O)/C=C1\SCC(=O)N1C	0.3	.	97.8	97.2
CCc1ccc(N2CCN(S(=O)(=O)N(C)C)CC2)cc1	-3.9	102.7	117.9	80.7
COC(=O)c1scc(S(=O)(=O)C(C)(C)C)c1-n1cccc1	-36.6	99.4	95.3	83.2
O=C(c1ccco1)N(Cc1ccco1)c1ccc(O)cc1	0.7	102.3	117.5	103.0
COc1ccc(-n2c(CN3CCN(S(=O)(=O)c4ccc(Br)cc4)CC3)nc3cccnc32)cc1	3.8	100.9	.	.
CN(C(=O)Nc1cccc(C(F)(F)F)c1)C1CCCCC1	-22.6	103.3	92.5	84.7
c1ccc(-c2nc(NC3CCCCC3)s[n+]2-c2ccccc2)cc1	-1.7	.	122.6	85.5
O=C(Nc1cccnc1)c1cc(-c2ccc(O)cc2)on1	1.5	97.3	109.0	93.1
Cc1nc2ccccc2c(=O)n1/N=C/c1ccccc1O	1.4	111.2	96.9	105.5
O=C(CSc1nc2ccccc2c(=O)n1CCC(=O)N1CCCCC1)c1ccccc1	.	100.0	87.6	83.6
CCn1cc(C(=O)N2CCN(c3ccccc3F)CC2)c(=O)c2cc(S(=O)(=O)N(C)C3CCCCC3)ccc21	-16.2	100.9	102.0	85.8
O=C(NCCCN1CCCC1)c1csc2c1CCCCC2	.	104.5	101.3	89.3
C=CCn1c(C2CC(=O)N(c3cc(Cl)ccc3OC)C2)nc2ccccc21 (stereo unspecified)	-24.4	107.2	99.5	72.8
COC(=O)c1sc(N)c(C(=O)OC)c1CSc1nc(C)cs1	-15.8	.	97.9	91.1
Cc1cccc(/C=C/c2ccccc2)n1	-10.7&-32.4	101.6	.	.
COc1ccc(OC)c(S(=O)(=O)NCC(c2ccc(N(C)C)cc2)N2CCc3ccccc32)c1 (stereo unspecified)	-3.0	109.3	99.8	94.2
O=C(O)C1CCC(CNCc2cccc(Br)c2)CC1 (stereo unspecified)	-5.4	106.4	119.5	86.8
COc1ccccc1C(=O)C(O)c1ccccc1OC (stereo unspecified)	-4.9	99.8	111.9	83.5
Cc1sc(NC(=O)c2ccccc2)c(C(Nc2ccccn2)c2cccnc2)c1C (stereo unspecified)	0.7	101.8	.	.

# Carrying on:
Structure	HCMV NEC inh	GIV Gai3 FP	Sa growth 42C	Sa growth 42C second temp
CCc1cccc(CC)c1N(COC)C(=O)Cn1c(CC)nc2ccccc21	-19.8	102.2	100.6	86.2
CC1CCC(NC(=O)COc2ccc3c(c2)OCO3)CC1 (stereo unspecified)	-7.2	.	103.8	93.0
COc1ccc(C(C)=O)cc1CSc1nc(NCc2ccc(Cl)cc2)c2ccccc2n1	.	106.5	107.7	96.4
COc1ccc(OC)c(NC(=O)N2c3ccccc3Sc3ccccc32)c1	-26.8	104.5	110.9	81.3
CCCOc1ccc(-c2nc3ccccc3c(=O)o2)cc1	-24.6	100.3	99.4	87.0
COc1cc2c(cc1NC(=O)C(C)Sc1nnc(-c3cccs3)n1CC1CCCO1)oc1ccccc12 (stereo unspecified)	-14.3	.	111.0	98.1
NC(=O)CSCc1c(Cl)cccc1Cl	-0.4	103.1	91.9	103.1
CCOC(=O)c1c(NC(=O)c2ccc(S(=O)(=O)N(C)C3CCCCC3)cc2)sc2c1CCN(C(C)C)C2	.	162.8	136.6	82.7
C=CCc1c(C)nc2ccccc2c1Cl	-37.6	95.8	114.8	85.7
COC(NC(=O)c1ccccc1)(C(F)(F)F)C(F)(F)F	-19.3	97.7	98.2	92.1
O=C1CC(C(=O)NCc2ccccc2)N=C(N2CCOCC2)N1 (stereo unspecified)	.	98.4	112.4	80.1
Cc1nn(S(=O)(=O)c2ccccc2)c(C)c1S(=O)(=O)N1CCCCC1	-16.6	106.1	113.0	84.1
CS(=O)(=O)N1N=C(c2ccc(Br)cc2)CC1c1cc2ccccc2nc1Cl (stereo unspecified)	.	124.6	102.5	95.4
CC1=C(C(=O)Nc2ccccc2)C(c2ccccc2)n2nnnc2N1 (stereo unspecified)	1.1	100.6	.	.
Cc1noc(C)c1S(=O)(=O)N1CCC(C(=O)N2CCN(c3ccccc3)CC2)CC1	-3.8	112.2	105.3	89.9

# Given with two lines to a compound: part of the list above.
# Values run as follows: HCMV NEC inh, GIV Gai3 FP, Sa growth 42C, Sa growth 42C second temp
C=CCn1c(C2CC(=O)N(c3cc(Cl)ccc3OC)C2)nc2ccccc21 (stereo unspecified)
 : -24.4, 107.2, 99.5, 72.8
COC(=O)c1sc(N)c(C(=O)OC)c1CSc1nc(C)cs1
 : -15.8, ., 97.9, 91.1
Cc1cccc(/C=C/c2ccccc2)n1
 : -10.7&-32.4, 101.6, ., .
COc1ccc(OC)c(S(=O)(=O)NCC(c2ccc(N(C)C)cc2)N2CCc3ccccc32)c1 (stereo unspecified)
 : -3.0, 109.3, 99.8, 94.2
O=C(O)C1CCC(CNCc2cccc(Br)c2)CC1 (stereo unspecified)
 : -5.4, 106.4, 119.5, 86.8
COc1ccccc1C(=O)C(O)c1ccccc1OC (stereo unspecified)
 : -4.9, 99.8, 111.9, 83.5
Cc1sc(NC(=O)c2ccccc2)c(C(Nc2ccccn2)c2cccnc2)c1C (stereo unspecified)
 : 0.7, 101.8, ., .
CCc1cccc(CC)c1N(COC)C(=O)Cn1c(CC)nc2ccccc21
 : -19.8, 102.2, 100.6, 86.2
CC1CCC(NC(=O)COc2ccc3c(c2)OCO3)CC1 (stereo unspecified)
 : -7.2, ., 103.8, 93.0
COc1ccc(C(C)=O)cc1CSc1nc(NCc2ccc(Cl)cc2)c2ccccc2n1
 : ., 106.5, 107.7, 96.4
COc1ccc(OC)c(NC(=O)N2c3ccccc3Sc3ccccc32)c1
 : -26.8, 104.5, 110.9, 81.3
CCCOc1ccc(-c2nc3ccccc3c(=O)o2)cc1
 : -24.6, 100.3, 99.4, 87.0
COc1cc2c(cc1NC(=O)C(C)Sc1nnc(-c3cccs3)n1CC1CCCO1)oc1ccccc12 (stereo unspecified)
 : -14.3, ., 111.0, 98.1
NC(=O)CSCc1c(Cl)cccc1Cl
 : -0.4, 103.1, 91.9, 103.1
CCOC(=O)c1c(NC(=O)c2ccc(S(=O)(=O)N(C)C3CCCCC3)cc2)sc2c1CCN(C(C)C)C2
 : ., 162.8, 136.6, 82.7
C=CCc1c(C)nc2ccccc2c1Cl
 : -37.6, 95.8, 114.8, 85.7
COC(NC(=O)c1ccccc1)(C(F)(F)F)C(F)(F)F
 : -19.3, 97.7, 98.2, 92.1
O=C1CC(C(=O)NCc2ccccc2)N=C(N2CCOCC2)N1 (stereo unspecified)
 : ., 98.4, 112.4, 80.1
Cc1nn(S(=O)(=O)c2ccccc2)c(C)c1S(=O)(=O)N1CCCCC1
 : -16.6, 106.1, 113.0, 84.1
CS(=O)(=O)N1N=C(c2ccc(Br)cc2)CC1c1cc2ccccc2nc1Cl (stereo unspecified)
 : ., 124.6, 102.5, 95.4

# Continued.
Structure	HCMV NEC inh	GIV Gai3 FP	Sa growth 42C	Sa growth 42C second temp
O=C1CCCC2=C1C(c1cccc(Cl)c1)C1C(=O)c3ccccc3C1=N2 (stereo unspecified)	.	100.2	107.5	80.8
COc1ccc(C(=O)OCC2CC2)cc1Br	-5.8	105.3	74.3	70.6
CSc1nc2ccc(NC(=O)c3cccc(F)c3)cc2s1	-15.2	99.6	.	.
CCCS(=O)(=O)c1c(S(=O)(=O)CCC)c2ccccn2c1C(=O)OC	.	96.3	114.9	82.1
C=CCN=C1SC(CC(=O)Nc2ccc(OC)cc2OC)C(=O)N1/N=C/c1ccccn1 (stereo unspecified)	-4.8	.	95.8	89.9
CN1C(=O)c2cc(NC(=O)c3ccccc3F)ccc2N2CCN=C12	-23.0	102.0	.	.
COc1cccc(-c2noc(N3CCN(c4ccc(F)cc4)CC3)n2)c1OC	-28.4	100.8	98.8	78.1
O=C(CCc1nc(-c2ccccc2)no1)N1CCCCC1	.	102.8	93.3	87.5
N#Cc1ccc(NC(=O)c2ccccc2C(F)(F)F)cc1	-15.6	.	93.4	90.1
COc1ccc(CN(C)C(=O)CSc2nccn2C)cc1OC	-5.2	.	93.8	86.8
Cc1nc2sc3c(c2c(=O)n1-n1cccc1)CCCC3	-22.4	.	97.0	93.6
CN(C)c1ccc(/C=C2\Sc3c(ccc4ccccc34)C2=O)cc1	-20.8	109.5	.	.
